Bead autofluor: flagged as autofluorescent in microsphere protease counterscreen | actives 3.1% (n = 360,000) | AID 624483 | compound autofluorescence counterscreen, microsphere flow cytometry; stronger effect = higher value | fluorescence intensity (test concentration not listed);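 active means at least 3 SD above the mean of all compounds, about 16000 in these data; inconclusive means too few beads counted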;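 further: 100 nL of 1 mM stock went into each well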
Sa ugtP lethal: growth inhibition of ugtP-null S. aureus, primary screen, RN4220 ugtP deletion, OD600 | 16 h; some inactives read as strong as hits | growth inhibition, % (concentration not given with the values) | actives 0.54% (n = 330,000);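 active means z-score under -3 and OD600 up to 0.15 on both plates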;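 further: plate controls were untreated wells for no effect and antibiotic for full effect; wells of about 80 µL received 100 nL stock; the first replicate is given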
PrP 5UTR inh: inhibition of PrP 5' UTR reporter expression; cell-based PrP 5' UTR mRNA reporter, plate reader; inhibition, % (test concentration not listed); actives 0.35% (n = 340,000);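 active means every replicate at 50% or more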;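 further: 0 = median of the neutral control wells; tested in H4 reporter cells; numbers are from one replicate; inactives centre near -14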
Mtb hypoxia inh: PubChem AID 1159583; M. tuberculosis hypoxia-regulated fluorescent reporter, fluorescence; fluorescence inhibition, % (no concentration beside the values); actives 0.1% (n = 300,000);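 active means 35 to 45% if threefold the growth effect, above 45% if 1.5-fold the growth effect; inactive means the rest, general growth blockers included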;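 further: wells of about 50 µL received 100 nL stock; 0% = vehicle wells and 100% = reference inhibitor wells; whole bacteria with a GFP reporter of the hypoxia response; strong numbers were not always called active; many hits fall short of the cut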
BJeLR viability: MLPCN primary cell-based screen for lethality selective to Ras in HRASV12 cells; BJeLR (HRASV12) viability, CellTiter-Glo ATP luminescence, 48 h; reference of the scale not given here; inhibition, % (concentration not given with the values); actives 0.17% (n = 300,000);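 active means replicate mean above 50%; inconclusive means above 50% but judged a plate artefact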;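 further: 50 nL library stock added to about 25 µL; numbers are from one replicate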
Sa RN4220 lethal: growth inhibition of S. aureus RN4220, primary screen, OD600; 16 h; inhibition, % (test concentration not listed); actives 0.33% (n = 330,000); AID 1259311, 2017;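 active means z-score of -3 or lower and OD600 up to 0.18 on both plates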;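 further: plate controls were untreated cells for no effect and reference antibiotic for full effect; stock transfer was 100 nL into about 80 µL; one replicate is shown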
Mtb hypoxia inh growth: recorded beside Mtb hypoxia inh, whose call it bears; growth inhibition, %; measured here: M. tuberculosis growth (absorbance);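 0% = vehicle and 100% = reference antibiotic; read after six days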
Active calls of the source: *; ? = inconclusive; · = no result given.

Structure,Bead autofluor,Sa ugtP lethal,PrP 5UTR inh,Mtb hypoxia inh,Mtb hypoxia inh growth,BJeLR viability,Sa RN4220 lethal
COc1ccc(OC)c(Cc2nnc(CCC(=O)NC(C3CC3)C3CC3)o2)c1,2302,15,-13,12,6,-5,3.0
CCOc1ccccc1CNCCNCC(C)O (stereo unspecified),4197,7,-12,-11,-2,-4,13
O=C(CN1C(=O)c2ccccc2C1=O)Nc1cc([N+](=O)[O-])ccc1O,3995,-5,-69,-3,2,10,-1.9
O=C(CCCCCNc1nc(=S)[nH]c2ccccc12)NCCc1c[nH]c2ccccc12,2602,8,0,-5,15,1,7.8
CC(=O)OCC(=O)[C@@]1(O)CC[C@H]2[C@@H]3CCC4=CC(=O)C=C[C@]4(C)[C@@]3(Cl)[C@@H](Cl)C[C@@]21C,6261,·,-1,·,·,0,·
COc1ccc(C(C)=NNc2nc(C)cc(-c3ccccc3)n2)cc1,·,-5,·,1,0,·,4.4
Cc1ccc(CN2CCC(n3nccc3NC(=O)CCCc3ccccc3)CC2)o1,4371,3,-20,6,5,2,2.0
CC(C)CN(C(=O)COC(=O)c1cccn1C)c1c(N)n(Cc2ccccc2)c(=O)[nH]c1=O,5854,6,-12,6,10,-6,-0.5
COc1cc(NC(=S)NCCc2c[nH]c3ccccc23)c(OC)cc1Cl,2060,-12,-12,4,3,3,-1.9
COC(=O)c1cn(N(C)c2ncc(C(F)(F)F)cc2Cl)c(=O)c2ccccc12,2383,-1,5,·,·,22,0.4
COCCN1C(=O)NC(c2ccco2)C(C(=O)OC)=C1C (stereo unspecified),·,0,·,10,8,·,8.1
C/C(Cn1cnc([N+](=O)[O-])n1)=N/NC(=O)COc1c(Cl)cc(Cl)cc1Cl,2066,·,-12,·,·,7,·
CCCN(CCC)c1ncnc2nc[nH]c12,6247,8,9,4,9,3,-0.5
C=CCS(=O)(=O)N1CCCC(Cc2ccccc2C)(C(=O)OCC)C1 (stereo unspecified),4167,2,-20,15,7,2,7.9
CCOC(=O)C1(C(F)(F)F)N=C(C(F)(F)F)Nc2ccccc21 (stereo unspecified),5423,6,-22,8,0,3,3.3
CCOc1ccccc1N1CCN(Cc2cccc(OC)c2OC)CC1,16205*,8,-3,8,8,-4,5.8
COc1ccc(OC)c(NC(=O)C(=S)NC2CCCCC2)c1,4194,-7,-31,3,3,1,23
Cc1cc(SCC(=O)Nc2cccc(S(N)(=O)=O)c2)c(C)cc1Br,3593,3,-15,4,6,4,-4.3
CCCC(C(=O)O)N1C(=O)/C(=C/c2cccn2C)SC1=S (stereo unspecified),2109,-20,-12,16,4,·,16
Cc1nc(SCC(=O)N2CCCC2=O)nc(C)c1C,2946,0,-21,12,-1,·,0.7
CCOc1ccc(N(CC(=O)NCCSCc2ccco2)S(=O)(=O)c2ccc(F)cc2)cc1,4780,8,-25,9,2,-3,0.5
CC1(C)Cc2c(sc(NC(=O)c3ccc(S(=O)(=O)N4CCCCCC4)cc3)c2C(N)=O)C(C)(C)N1,5717,-3,-12,5,4,16,-1.4
NC(=S)N/N=C/c1cn(CCC(=O)O)nc1-c1cccc(Br)c1,4049,·,-32,·,·,0,·
CCOc1cc(C=N/N=C2/NC(=O)C(CC(=O)O)S2)ccc1OCc1ccc(Cl)cc1 (stereo unspecified),·,2,·,-3,3,·,3.3
COc1ccc(NC(=O)c2c[nH]n3c(=O)cc(C4CCN(C(=O)OC(C)(C)C)CC4)nc23)cc1Cl,4401,-35,-28,-7,17,-4,-4.4
O=C(NCCCN1CCN(CCCNC(=O)c2cc([N+](=O)[O-])ccc2Cl)CC1)c1cc([N+](=O)[O-])ccc1Cl,8712,0,-14,7,3,1,-2.9
COc1ccc(-n2c(C)cc(/C=N/Nc3nnc(C)n3N)c2C)cc1,2562,·,-9,·,·,2,·
CC(C(=O)Nc1ccccc1-c1ccccc1)N(C)Cc1nc2ccccc2c(=O)[nH]1 (stereo unspecified),3685,-9,-19,-10,-8,1,1.2
CCN(CC(=O)Nc1c(F)cccc1F)C(=O)CSc1ccccc1,5558,1,-20,-10,-5,-9,-0.7
COc1cc(CNc2nc3c(C)cc(C)cc3s2)ccc1O,3617,-5,-17,3,1,2,1.4
O=C(Cn1c2c(c(=O)n3ncnc13)CCC2)NN=Cc1cccs1,·,5,·,0,-3,·,1.2
O=c1cc(CCl)nc2scc(-c3ccccc3)n12,4108,6,-18,18,25,-2,3.7
Cc1ccc(F)c(NC(=O)CCc2ccccc2)c1,2420,0,-46,·,·,0,0.1
Clc1ccccc1CN1CCN(c2ccccc2Cl)CC1,9768,38,-12,0,4,9,-7.1
CC(=O)Oc1ccccc1C(=O)Nc1ccccc1C(=O)N1CCCC1,?,0,-1,-4,-1,-2,0.5
C#CCOCCOCCOCCNc1nc(N2CCN(C(=O)[C@H](CCCCN)n3cc([C@@H](N)C(C)CC)nn3)CC2)nc(N2CCN(C(=O)[C@H](CCCCN)n3cc([C@@H](N)CC(C)C)nn3)CC2)n1 (stereo partly specified),3849,·,-27,·,·,5,·
CCOC(=O)N1CCN(Cc2cc(Cl)c3cccnc3c2O)CC1,·,-3,·,2,0,15,11
CCCCCCOc1cccc(N)c1,22320*,2,0,5,11,5,4.7
Nc1ncnc(Nc2c(F)cccc2F)n1,5935,4,-10,-9,1,-1,4.6
O=c1[nH]c(=S)[nH]c(O)c1N=Nc1cccc(S(=O)(=O)N2CCOCC2)c1,4697,17,0,3,12,0,8.1
COCC1CCCCN1C(=O)c1ccc2nc(Cc3ccc(OC)c(OC)c3)oc2c1 (stereo unspecified),6193,-2,-19,3,7,1,0.6
COc1ccccc1C1(O)C(=O)Nc2ccccc21 (stereo unspecified),3659,7,2,-3,6,8,1.5
COc1ccc(S(=O)(=O)Nc2cccc3c2OC(CN(C)S(=O)(=O)c2cn(C)cn2)C(C)CN(C(C)CO)C3=O)cc1 (stereo unspecified),·,0,·,7,2,·,8.0
NC(=O)CC(NC(=O)c1cccc(Br)c1)c1ccc(N2CCC(Br)CC2)c([N+](=O)[O-])c1 (stereo unspecified),4131,-16,-11,-1,5,12,-4.3
C=CCn1nc([N+](=O)[O-])nc1Sc1cccc2cccnc12,2423,25,-19,8,7,-6,1.2
N#Cc1nc(COc2ccc(F)cc2)oc1NCCCn1ccnc1,2926,1,-31,·,·,2,1.9
O=C(COc1ccccc1)NCC(=O)N/N=C/C=C/c1ccccc1,2465,·,-17,·,·,-4,·
c1ccc(-c2c[n+]3c(n2-c2ccccc2)CCC3)cc1,6357,7,-23,-1,8,6,2.3
CCOC(=O)c1cnc(SC)nc1N,2742,1,-31,·,·,-2,-1.5
C=Cn1cc[n+](CC(=O)C(C)(C)C)c1,2087,2,-26,-2,-3,-10,2.2

(next part)
Structure,Bead autofluor,Sa ugtP lethal,PrP 5UTR inh,Mtb hypoxia inh,Mtb hypoxia inh growth,BJeLR viability,Sa RN4220 lethal
O=C(COC(=O)c1ccc2c(c1)OCCO2)Nc1cc(S(=O)(=O)N2CCOCC2)ccc1Cl,2590,5,-38,-3,-1,18,2.4
CCOC(=O)c1cc(OC(=O)c2ccccc2Br)n(-c2ccccc2)n1,10633,0,·,-3,5,-11,5.0
CCOC(=O)c1cc2sccc2n1CC(=O)N1CCCC1,10917,7,-22,6,5,0,5.4
O=C(N1CCCCC1)N1CCN(C(c2ccccc2)c2ccccc2)CC1,2160,8,-10,·,·,-1,-2.1
CC(c1n[nH]c(=S)n1Cc1ccccc1)N(C)C (stereo unspecified),3865,9,-13,3,9,-1,3.3
CCC(Sc1n[nH]c(=O)[nH]c1=O)C(=O)OCc1ccccc1 (stereo unspecified),4189,-6,-11,-3,5,8,-3.0
CCc1nnc(NS(=O)(=O)c2ccc(NC(=S)NC(=O)/C=C/c3ccc(OC)cc3)cc2)s1,1967,·,-6,·,·,0,·
O=C(CCc1nnc(C2CCCCC2)o1)N1CCCCC1CCn1cccn1 (stereo unspecified),3314,-6,-20,5,16,3,1.9
COc1cc(-c2cc(C(=O)N3CCN(c4ccccn4)CC3)c3ccccc3n2)cc(OC)c1OC,5630,0,-9,-10,5,0,-1.9
COC(=O)CN1C(=O)C2(C(C(=O)OC)=C(N)Oc3ccccc32)C2=C1CC(C)(C)CC2=O (stereo unspecified),23470*,-3,-7,-2,-3,1,1.1
CCOC(=O)N1CCN(c2ccccc2OC)CC1,4619,10,-9,18,9,3,4.8
COc1cc(S(=O)(=O)NCCCn2ccnc2)ccc1Cl,3371,6,-18,-3,6,-20,1.9
CCc1ccc(NC(=O)C2=CC(c3cccs3)=NS(=O)(=O)N2C)cc1,6086,-23,-44,3,2,4,-22
Cc1cc([N+](=O)[O-])nn1CC(=O)NN=Cc1ccccc1F,·,9,·,-13,6,·,5.5
O=C(c1c(O)c2ccccc2oc1=O)C1CCCCC1,9977,22,-32,-3,6,-7,48
[O-]C1=N[N+](=Cc2ccccc2Cl)CC1,·,2,·,10,2,·,15
Cc1ccc(O)c(C2=Nc3ccccc3N=C(c3cccs3)C2)c1,2510,27,-28,-13,-2,11,-11
CCOC(=O)Cc1nn(CCc2ccccn2)c(=O)c2ccccc12,4246,-1,-33,·,·,-4,5.3
Cc1cccc(C=Nn2c(C)nc3ccccc3c2=O)c1,·,-2,·,4,18,·,2.5
O=C(NC1CCCc2ccccc21)c1cccc(S(=O)(=O)N2CCOCC2)c1 (stereo unspecified),4633,0,-11,8,2,-11,0.5
COCCNC(=O)C(c1ccc(C)cc1)N(C(=O)CCC(=O)Nc1ccccn1)C1CCCCC1 (stereo unspecified),3221,3,-19,11,2,-7,3.7
CCC(c1nnc(SCC(=O)NC2CCCCC2)n1Cc1ccccc1)N(C)C (stereo unspecified),7421,3,-11,3,2,0,1.9
COc1ccc(S(=O)(=O)N2CCCCCC2)cc1C(=O)NCc1ccc(C)cc1,·,8,-2,0,-3,·,6.1
CCC1(c2ccccc2)NC(=O)N(CC(=O)NCc2ccncc2)C1=O (stereo unspecified),3184,·,-9,·,·,-12,·
COc1ccc(/C=C2\N=C(c3ccccc3)N(c3ccc(C(=O)O)cc3)C2=O)cc1OC,4569,1,0,10,2,13,9.0
CN(CC(=O)NC1CCCCCC1)S(=O)(=O)c1ccccc1,9516,7,-46,11,14,6,5.3
CN(C)c1ccc(/C=C/C=C2/SC(=S)N(c3ccccc3)C2=O)cc1,3194,-5,-24,7,2,31,8.4
Cc1cccc(NC(=O)CN2C(=O)NC(C)(c3ccc4ccccc4c3)C2=O)n1 (stereo unspecified),?,-2,-10,-2,0,0,-7.0
O=C1CC(c2ccccc2)n2nc(N3C(=O)c4ccccc4C3=O)nc2N1 (stereo unspecified),4234,-1,-11,·,·,-4,-1.9
CCOC(=O)c1c(C)[nH]c(C(=O)OC(C)C(=O)Nc2ccccc2OC)c1C (stereo unspecified),5751,-12,-17,-2,-2,2,-1.7
CCCCc1nc2ccccc2c(=O)n1-c1ccc(O)cc1,4352,-2,-8,24,-14,-9,0.9
O=C(COCc1ccccc1)NC(Cc1ccc(O)cc1)C(=O)O (stereo unspecified),·,-2,·,14,1,·,2.5
C=C(C)COc1ccc(-c2nc(N)nc(C)c2-c2ccc(OC)cc2)c(O)c1,2143,17,-28,5,10,-1,-4.9

Arranged by molecular weight (low to high): part of the list above
Structure,Bead autofluor,Sa ugtP lethal,PrP 5UTR inh,Mtb hypoxia inh,Mtb hypoxia inh growth,BJeLR viability,Sa RN4220 lethal
O=C(Cn1c2c(c(=O)n3ncnc13)CCC2)NN=Cc1cccs1,·,5,·,0,-3,·,1.2
NC(=S)N/N=C/c1cn(CCC(=O)O)nc1-c1cccc(Br)c1,4049,·,-32,·,·,0,·
O=C(CCCCCNc1nc(=S)[nH]c2ccccc12)NCCc1c[nH]c2ccccc12,2602,8,0,-5,15,1,7.8
COc1ccc(S(=O)(=O)Nc2cccc3c2OC(CN(C)S(=O)(=O)c2cn(C)cn2)C(C)CN(C(C)CO)C3=O)cc1 (stereo unspecified),·,0,·,7,2,·,8.0

High-throughput results: PubChem BioAssay, several laboratories
